TsaE inh – YjeE (TsaE) inhibition, E. coli; P0AF67; purified YjeE, fluorescence polarisation of a bound ADP probe; Potency, µM; 0.05% of 71,000 active; AID 605; active = well fitted falling curve; inconclusive = weaker or top-dose-only fall, or a rising curve; inactive = flat or poorly fitted curve;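 also: top concentration of the series not given in the record; excess ADP was the control for the full effect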
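Fluorescence polarization of a BODIPY Texas Red–ADP probe (2 uM) bound to purified YjeE (10 uM) was read after 15 min room-temperature incubation with compounds. Loss of polarization marks inhibitors; ADP serves as titrated control.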
PK Bst – modulators of Bacillus stearothermophilus pyruvate kinase; Potency, µM; partly purified Bacillus stearothermophilus pyruvate kinase, luminescence ATP production; ribose 5-phosphate activator present at AC10; AID 361; 1.2% of 51,000 active; in the data active means potency below about 11 µM; inconclusive means mostly about 12 µM to 25 µM; inactive means weaker than that;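 the screen sought inhibitors and activators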;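 also: potency is read from the fitted curve at half-maximal effect; scaled between full activation by ribose 5 phosphate and full inhibition by luteolin; about four in five hits inhibit and the cells do not say which; series up to 57 µM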
Starred values were filed as active, the others as inactive; i = inactive; ? = inconclusive; . = no result given. An excerpt; rates above refer to the full screens.

entry	TsaE inh	PK Bst	canonical_smiles
1	i	>57	Cc1cc(C)n2nc(SCC(=O)N(C(C)C)C(C)C)nc2n1
2	i	>57	O=C(OCC(=O)N1CCCC1)c1cncc(Br)c1
3	i	>57	Cc1cc(C)c(C#N)c(SCS(=O)Cc2ccc(Cl)cc2)n1 (stereo not given)
4	i	.	CN(C)C(=O)c1ccc(-c2ccc3ncnc(N(C)C)c3c2)cc1
5	i	>57	CCCc1[nH]nc2c1C(c1ccccc1OCC)C(C#N)=C(N)O2 (stereo not given)
6	i	>57	CCc1nc(SCC(=O)Nc2ccnc3ccccc23)n[nH]1
7	i	.	CCNc1ncc2nc(C)c(=O)n(Cc3ccc(F)cc3)c2n1
8	i	>57	CCOC(=O)c1c(C)c(C(=O)Nc2ccc3c(c2)OCCO3)c(C)n1CC
9	i	>57	Cc1ccc(N2CC(C(=O)NCCC(C)C)CC2=O)cc1 (stereo not given)
10	i	>57	O=S(=O)(c1cccs1)N1CCN(Cc2nc3ccccc3s2)CC1
11	i	>57	COc1ccc(CN2CC(C(=O)NCCN3CCOCC3)CC2=O)cc1 (stereo not given)
12	i	>57	O=C(COc1ccccc1Cl)N1CCN(c2ccc(F)cc2)CC1
13	i	.	CCC(C)NC(=O)c1ccccc1NC(=O)CN1C(=O)c2ccccc2S1(=O)=O (stereo not given)
14	i	>57	COc1ccccc1N1CCN(CC(=O)Nc2ccc(CN3CCCCC3)cc2)CC1
15	i	>57	O=C(CN1CCN(S(=O)(=O)c2ccc(F)cc2)CC1)Nc1cc(C(F)(F)F)ccc1Cl
16	i	>57	Cc1cc(C)c2nc(N3CCC(C(=O)N4CCCC4)CC3)sc2c1
17	i	.	CC1=C(C(=O)NCCCOC(C)C)C2(CCC(C)CC2)OC1=O (stereo not given)
18	i	>57	CCN(CC)CCCn1c(=S)[nH]c2ccccc2c1=O
19	i	>57	Clc1cccc(OCCn2cncn2)c1Cl
20	i	.	COc1ccc(C(=O)N2CCC3(CCCN(Cc4ccccc4OC)C3)CC2)cc1
21	i	>57	CCC(=O)N1CCc2cc(S(=O)(=O)NC(Cc3ccccc3)C(=O)NC3CCCC3)ccc21 (stereo not given)
22	i	.	Cn1cccc1Cc1nnc(SCC(=O)N2CCc3ccccc32)n1-c1ccc(F)cc1
23	i	>57	CC(C)c1nc2oc3c(NCC4CCCO4)ncnc3c2c2c1COC(C)(C)C2 (stereo not given)
24	i	?	c1ccc(-c2nc3ccccc3s2)nc1
25	i	>57	COc1cc(CSc2nnnn2-c2ccc(C)cc2)cc(OC)c1OC
26	i	.	O=C(NCCc1c[nH]c2ccccc12)[C@H]1C[C@@H]1[C@H](NP(=O)(c1ccccc1)c1ccccc1)c1ccccc1
27	i	>57	COc1ccc(OC)c(C(=O)CC2OC(=O)c3ccccc32)c1 (stereo not given)
28	i	.	O=C(c1ccccc1)c1ccc2nc(N3CCCCC3)c3nncn3c2c1
29	i	.	CCCCc1nc(SCC(=O)Nc2cc(C)on2)n[nH]1
30	i	>57	CC1CCCC(C)N1CCNC(=O)C1CCN(S(=O)(=O)N2CCCCC2)CC1 (stereo not given)
31	i	>57	O=C(NCCCN1CCOCC1)C1CC(=O)N(C2CCCCC2)C1 (stereo not given)
32	i	>57	CC1CCN(C(=O)CSc2nc(N)c3c4c(sc3n2)CN(C)CC4)CC1
33	i	.	Cc1nc2cnc(N(C)C)nc2n(Cc2cccs2)c1=O
34	i	>57	O=C(Nc1cccnc1)c1coc(=O)c2ccccc12
35	i	.	CN(Cc1ccco1)c1nc(-c2cccc(C#N)c2)nc2ccccc12
36	i	.	C[C@@H](C(=O)NCc1ccccn1)[C@@H]1C[C@@]1(C)[C@@H](NC(=O)OCc1ccccc1)c1ccccc1
37	i	.	COc1ccc2c(c1)cc1n2CCN=C1N
38	i	.	CCCC(=O)C1=C(O)C(C(=O)OC)C(C)(C)CC1=NC (stereo not given)
39	i	.	O=C(Nc1ccc2oc(-c3ccccc3)nc2c1)c1cccnc1
40	i	>57	O=C(COc1ncnc2ccccc12)N1CCN(C(=O)c2ccco2)CC1
41	i	>57	CCCCCOc1ccc(NS(C)(=O)=O)cc1
42	i	.	CSc1ccc(NC(=O)[C@H]2CCCC[C@@H]2C(=O)O)cc1
43	i	>57	Cc1ccc(OCCN2C(=O)c3ccccc3C2=O)c(C)c1
44	i	.	Nc1nc2c(c(=O)[nH]1)N[C@H](CCNc1ccc(C(=O)O)cc1)CN2
45	i	.	Cc1ccc(C(=O)COc2cccc(NC(=O)c3ccco3)c2)cc1
46	i	>57	CCOC(=O)N1CCN(S(=O)(=O)c2ccc3c(c2)SCC(=O)N3)CC1
47	i	>57	O=C(CN1C(=O)NC2(CCCC2)C1=O)Nc1cccc(-c2nnc3n2CCCCC3)c1
48	.	>26	C=C(C)Cn1c(-c2ccc(OC)cc2)nc2ccccc21
49	i	>57	CC(NC(=O)c1cccs1)C(c1cccs1)N1CCN(c2ccccc2)CC1 (stereo not given)
50	i	.	CCOC(=O)c1sc(/N=C/N(C)C)c(C(=O)OCC)c1C
51	i	.	CN(C)CC[C@H](c1ccc(Br)cc1)c1ccccn1
52	i	>57	O=c1ccc(=O)n2n1CC(O)C2
53	i	>57	Nc1cnn(C2CCCO2)c(=O)n1 (stereo not given)
54	i	>57	Cc1cccc(C(=O)OCC(=O)Nc2ccc(N3CCCCC3)cc2)c1O
55	i	>57	CCCn1c(-c2ccc(F)cc2)n[nH]c1=S
56	i	>57	CCOC(=O)c1ccc(N2C(=O)CC(NC3CCN(C(=O)c4cccc(Cl)c4)CC3)C2=O)cc1 (stereo not given)
57	i	.	O=C(O)C1CCCCC1C(=O)Nc1nccs1 (stereo not given)
58	i	.	O=C(NCCCN1CCOCC1)c1cc(-c2ccc(Br)cc2)on1
59	i	>57	CSc1nsc(SCc2cnc(C)nc2N)n1
60	i	>57	CCOc1ccccc1-n1c(SCC(N)=O)nc2ccccc2c1=O

Remaining list, next part
entry	TsaE inh	PK Bst	canonical_smiles
61	.	>26	CCOc1nc(SCCOc2ccccc2)nc(N(C)C)n1
62	i	.	COCCN1CCN(c2c(C)c(C)nc3cc(-c4cccc(OC)c4)nn23)CC1
63	i	.	CCOC(=O)C1=C(C)N=c2s/c(=C\c3cccn3C)c(=O)n2C1c1cccc(OC)c1OC (stereo not given)
64	i	>57	CCOC(=O)COc1ccc(Cl)cc1C1NC(=O)NC(C)=C1C(C)=O (stereo not given)
65	i	>57	Cc1ccc(CCNC(=O)C2CCN(C(=O)c3sccc3-n3cccc3)CC2)cc1
66	i	>57	CSc1ccccc1C(=O)NC1CC2CCC1C2 (stereo not given)
67	i	>57	O=C(Nc1nnc(-c2ccccc2)o1)NC1CCCCC1
68	i	>57	CC1CC(=O)c2cnc(NCC3CCCO3)nc2C1 (stereo not given)
69	i	>57	COc1cccc(N2C(=O)C(CC(=O)Nc3ccc(F)cc3)N(C3CCCCC3)C2=O)c1 (stereo not given)
70	i	>57	COc1ccc(S(=O)(=O)Nc2ccc(F)c(F)c2)cc1Cl
71	i	>57	O=C(Nc1ccc2c(c1)OCO2)C1CCN(c2ccc(S(=O)(=O)N3CCOCC3)cc2)CC1
72	i	.	COc1ccc(-c2nc3cnccn3c2Nc2ccc3c(c2)OCO3)cc1
73	i	>57	O=C(O)C1C2C=CC3(O2)C1C(=O)N1c2ccccc2COC13 (stereo not given)
74	i	>57	O=C(c1cccc(S(=O)(=O)N2CCOCC2)c1)N1CCCc2ccccc21
75	i	.	O=C1CCC(=O)N1c1ccccc1-c1ccccc1
76	i	.	Nc1ccccc1-c1nnc(SCc2ccccc2F)[nH]c1=O
77	i	>57	CC(C)C1N(S(=O)(=O)c2ccccc2)CCN1S(=O)(=O)c1ccccc1
78	i	.	Cc1ccc(Nc2nc(N)nc(CN3CCN(Cc4ccc5c(c4)OCO5)CC3)n2)cc1
79	i	>57	COc1ccc2nc(SCC(=O)Nc3ccc(S(=O)(=O)Nc4onc(C)c4C)cc3)[nH]c2c1
80	i	.	COc1ccc(-n2c(=O)cnc3cnc(OC)nc32)cc1
81	i	>57	Cc1n[nH]c(C)c1S(=O)(=O)N1CCOCC1
82	i	>57	S=P(c1ccc(N2CCOCC2)cc1N1CCOCC1)(N1CCOCC1)N1CCOCC1
83	i	>57	FC(F)Oc1ccc(-c2csc(Cc3nnc4n3CCCCC4)n2)cc1
84	i	>57	COC(=O)C1(CCSC)NC(c2ccc(O)cc2)C2C(=O)N(c3ccc4c(c3)OCCO4)C(=O)C21 (stereo not given)
85	i	>57	COc1ccccc1C(=O)N1CCN(c2cccc(Cl)c2)CC1
86	i	>57	N#Cc1ccc(OCC(=O)NCCc2ccc(S(N)(=O)=O)cc2)cc1
87	i	.	O=S(=O)(CCc1nc2ccccc2o1)c1ccc(Cl)c(Cl)c1
88	i	>57	CC(=O)c1sc(NC(=O)c2ccc(Cn3cc(Br)cn3)o2)nc1C
89	i	>57	CCOC(=O)C1CCN(CC(=O)Nc2c(C(=O)OC)[nH]c3cccc(C)c23)CC1
90	i	.	CN1CCN(c2ncc3nc(-c4cn(C)c5ccccc45)c(=O)n(CCC#N)c3n2)CC1
91	i	.	CC(=O)c1c(N(C)C)ccnc1C(F)(F)F
92	i	>57	N#Cc1c(NC(=O)Cn2cnc3ccccc3c2=O)oc(-c2ccccc2)c1-c1ccccc1
93	i	>57	CCOc1ccc(/C(O)=C2/C(=O)C(=O)N(CCOCCO)C2c2ccc(F)cc2)cc1 (stereo not given)
94	i	>57	CCn1c(Cc2ccc(OC)cc2)nnc1SCC(=O)NC1CCCCC1
95	i	.	O=C(CSc1nc2ncccc2[nH]1)NCc1ccccc1
96	i	>57	CCOc1ccc(C2N(c3cc(C)on3)C(=O)C3CCCN32)cc1OC (stereo not given)
97	i	>57	CCNC(=O)N1C(=O)C2(OCCO2)c2ccccc21
98	i	.	COc1ccccc1CNCc1cc(OC)c(OC)cc1OC
99	i	>57	N=c1c2c3c(sc2ncn1N)CCCCC3
100	i	>57	COc1ccc(NC(=O)c2ccco2)cc1NC(=O)c1cccs1
101	i	>57	CCN(CC)CCNS(=O)(=O)c1ccc(Cl)cc1
102	i	3.2*	CC(=O)Nc1ccc(S(=O)(=O)N2CCN(C(=O)N3CCOCC3)CC2)cc1
103	i	.	CN(C)/C=C1\N=C(c2ccc3c(c2)OCO3)OC1=O
104	i	>57	O=C1c2ccccc2C(=O)N1CCc1nc(-c2ccccn2)no1
105	.	>11	Cc1ccc(C2/C(=C(\O)c3ccc4c(c3)OCCO4)C(=O)C(=O)N2CCCN(C)C)o1 (stereo not given)
106	i	>57	O=C(O)CCCCCN=C1CCc2ccccc2N1
107	i	.	N#Cc1cccc(NC(=O)N2CC[C@@]3(CCCNC3)C2)c1
108	i	>57	C=CCn1c2ccccc2c2nnc(SCC(=O)NC(C(=O)OC)C(C)C)nc21 (stereo not given)
109	i	>57	O=C1NC(Nc2nc3ccccc3s2)(C(F)(F)F)C(=O)N1C1CCCCC1 (stereo not given)
110	i	>57	Cc1ccc(CNC(=O)c2ccc(Cn3nc(C)c(Cl)c3C)o2)cc1
111	i	>57	C=CCOC(=O)C1=C(C)Nc2nnnn2C1c1cccc(OC)c1OC (stereo not given)
112	i	>57	CCOC(=O)C1(C)NC(c2ccc(OC)cc2OC)C2C(=O)N(c3cccc(OC)c3)C(=O)C21 (stereo not given)
113	i	?	COc1c(C)cc(Br)cc1C(=O)Nc1cccc(NC(=O)c2ccco2)c1
114	.	>26	CC(NC(=O)Nc1ncccn1)(C(F)(F)F)C(F)(F)F
115	i	.	COc1ccccc1CNc1nc(-c2ccoc2)nc2ccccc12
116	i	.	CC1CCCN(S(=O)(=O)c2coc(C(N)=O)c2)C1 (stereo not given)
117	i	.	O=C1c2ccccc2S(=O)(=O)N1CC(O)COc1ccc(Br)cc1 (stereo not given)
118	i	.	C#CCN1C(C)=C(C(=O)OC)[C@@H](c2cccc([N+](=O)[O-])c2)C(C(=O)OCC)=C1C
119	.	>26	C=CCNc1nc(C)nc(OC)n1
120	i	.	Cc1nc(SCn2nnc3ccccc3c2=O)nc(C)c1C
121	i	.	COc1ccccc1NC(=O)Cn1c(=O)n2nc(C)nc2c2ccccc21
122	i	.	COCCNC(=O)C1(CC(C)C)C=CCN1C(C)=O (stereo not given)
123	i	.	Cc1cc(NC(=O)CSc2ccc3nnc(-c4ccccn4)n3n2)no1

Screening data deposited in PubChem by National Center for Advancing Translational Sciences (NCATS).
